From PubChem BioAssay
PINK1 expr mod: A Quantitative High throughput Screen to Identify Chemical Modulators of PINK1 Expression; PINK1 immunofluorescence, high-content cytometry, 24 h; 0.2% of 410,000 active; Potency, µM (series often up to 76.6 µM), inactives show top-dose activation (PINK1 increase), usual class: activators; active = well fitted activation curve with a large enough effect; inconclusive = small, poorly fitted or top-dose-only effect; inactive = flat fitted curve, though single readings scatter; cell line not stated here;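 also: potency is read from the fitted curve at half-maximal effect; % of control where 0% means no effect; nearly all actives have a fitted effect of over 65% in size; a mitochondrial uncoupler was the plate control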
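PINK1 protein, normally rapidly degraded, was detected by immunofluorescence after 24 hour compound treatment of a stable cell line. Titration data (5 concentrations) came from laser-scanning cytometry, with CCCP-treated wells as controls.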
D2 ag: Beta-Arrestin HTS for Positive Allosteric Modulators of the Human D2 Dopamine Receptor: Agonists; DiscoveRx PathHunter D2 beta-arrestin, luminescence, 90 min; 100% = 57 uM dopamine signal; activation, % (no concentration beside the values); 0.084% of 360,000 active; AID 624465, 2012; in the data active = activation above about 40%; inconclusive = about 15% to 40%; inactive = below about 15%; also: compound concentration not given in the record; the text of the record calls up to 30% inactive
Target sequence (P14416 whole entry, looked up): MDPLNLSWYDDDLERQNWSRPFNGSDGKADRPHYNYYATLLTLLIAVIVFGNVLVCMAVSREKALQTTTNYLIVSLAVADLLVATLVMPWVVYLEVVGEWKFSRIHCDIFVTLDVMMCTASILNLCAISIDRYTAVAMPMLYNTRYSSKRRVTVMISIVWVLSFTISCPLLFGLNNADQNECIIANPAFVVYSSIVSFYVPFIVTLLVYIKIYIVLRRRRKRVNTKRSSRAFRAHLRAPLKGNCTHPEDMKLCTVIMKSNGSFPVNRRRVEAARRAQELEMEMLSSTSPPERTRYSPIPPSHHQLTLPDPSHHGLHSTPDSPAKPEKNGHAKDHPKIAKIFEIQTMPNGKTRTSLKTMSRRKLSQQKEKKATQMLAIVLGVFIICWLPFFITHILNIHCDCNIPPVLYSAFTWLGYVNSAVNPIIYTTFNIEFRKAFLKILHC
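Agonist mode: compounds alone added to overnight-plated D2 PathHunter cells for 90 min at 37 C, with 57 uM final dopamine (EC100) defining full response. Beta-arrestin recruitment detected by chemiluminescent reagent, read after 1 h at ambient temperature.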
Menin MLL FP FL: qHTS Assay for Inhibitors Targeting the Menin-MLL Interaction in MLL Related Leukemias: Competition With Fluorescein Labeled MLL-derived Peptide; Fluorescence polarization, fluorescein-MLL peptide displacement from menin; FP activity change, % at 61.4 µM; 290,000 tested, under 10 active; inconclusive = falling polarisation curve, or a change in total fluorescence; inactive = total fluorescence flat and polarisation flat or rising; no compound was filed as active; the % refers to the polarisation; negative = inhibition;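 also: % of control where 0% means no effect; inhibitors lower the polarisation; unlabelled MLL peptide was the positive control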
Sfp inh: qHTS Assay for Inhibitors of Bacillus subtilis Sfp phosphopantetheinyl transferase (PPTase). Potency, µM, for inactives: max response, negative = inhibition, actives largely listed as inhibitors. Biochemical Sfp PPTase activity, qHTS. 3.5% of 310,000 active. AID 1490, 2009. 4'-phosphopantetheinyl transferase ffp (Bacillus subtilis), Q9F4F7; active = well fitted inhibition curve with a large enough effect; inconclusive = small, poorly fitted or top-dose-only effect, or another doubt; inactive = no such curve, though single readings can be large or run the other way;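 also: the enzyme is Sfp with the accession as filed and its product quenches rhodamine fluorescence; potency is read from the fitted curve at half-maximal effect; 0% = enzyme reaction without inhibitor and -100% = no enzyme wells; top concentration of the series not given in the record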
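Sfp 15 nM + cpd, 15 min RT; start w/ rhodamine-CoA 5 uM, BHQ-2-YbbR 12.5 uM (final); 50 mM Hepes pH 7.6, 10 mM MgCl2, 0.01% NP-40, 0.01% BSA; read 525/598 nm at 0 and 30 min.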
gsp ag: qHTS for Agonist of gsp, the Etiologic Mutation Responsible for Fibrous Dysplasia/McCune-Albright Syndrome: qHTS; 0.13% of 340,000 active; Potency, µM (doses to about 76.9 µM), for inactives: at the highest dose activation (cAMP increase), actives largely listed as activators; gsp mutant cells, cAMP HTRF, 30 min; control for the full effect not named in the record; active = well fitted activation curve with a large enough effect; inconclusive = small, poorly fitted or top-dose-only effect, or another doubt; inactive = no such curve, though single readings can be large or run the other way; cell line not stated here;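 also: phosphodiesterase inhibitor Ro 20-1724 added with compounds to block cAMP breakdown; potency is read from the fitted curve at half-maximal effect; nearly all actives have a fitted effect of over 60% in size; about a fifth of the inactives were tested at one dose only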
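Cells in DMEM/10% FBS with G418 were pretreated with compounds in DMSO plus […] (300 uM stock) for 30 min at 37C. cAMP was measured by HTRF (cAMP-d2 plus anti-cAMP antibody-K) after 30 min at room temperature.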
gsp antag: qHTS for Antagonists of gsp, the Etiologic Mutation Responsible for Fibrous Dysplasia/McCune-Albright Syndrome: qHTS; Potency, µM (series often up to 76.9 µM), inactives show at the highest dose activity change, negative = inhibition, most hits filed as inhibitors; 0.4% of 340,000 active; gsp-mutant cells, cAMP HTRF, 30 min; control for the full effect not named in the record; AID 624288, 2012; active = falling curve of any shape with a large fitted effect; inconclusive = falling curve, mostly with a smaller effect; inactive = flat or rising curve; cell line not stated here;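 also: intracellular cAMP measured with PDE inhibitor Ro 20-1724 present during compound exposure; potency is read from the fitted curve at half-maximal effect; % is scaled to controls: 0 for no effect and ±100 for the full control effect; nearly all actives have a fitted effect of over 65% in size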
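Cells in G418 medium, seeded 16-24 h, 37C; buffer exchange to DPBS + 1 mM CaCl2, 0.5 mM MgCl2, 0.05% BSA; cpds in DMSO + […] (300 uM stock), 30 min 37C; HTRF cAMP detection.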
ClpP mod: qHTS Assay for Activators of ClpP | 1.9% of 340,000 active | ATP-dependent Clp protease proteolytic subunit (Bacillus subtilis (strain 168)), P80244 | Potency, µM (top dose mostly 57.5 µM), for the others: top-dose activity change, negative = active | purified B. subtilis ClpP, FRET peptide cleavage, 20 min; active = well fitted falling curve with a large enough effect; inconclusive = small, poorly fitted or top-dose-only effect; inactive = no such curve, though single readings can be large or run the other way; also: potency is read from the fitted curve at half-maximal effect; the source files actives as falling curves though it sought activators and does not explain the sign; nearly all actives have a fitted effect of over 65% in size; many hits overshoot -100%
Target sequence (P80244 whole entry, looked up): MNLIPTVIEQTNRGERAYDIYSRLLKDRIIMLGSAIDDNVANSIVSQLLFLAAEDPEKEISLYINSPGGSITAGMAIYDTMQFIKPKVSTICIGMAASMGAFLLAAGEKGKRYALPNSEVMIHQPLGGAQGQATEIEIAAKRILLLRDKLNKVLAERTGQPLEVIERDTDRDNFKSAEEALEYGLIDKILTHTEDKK
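ClpP 10 microg/mL final, pH 8 Tris/KCl buffer with BSA, glycerol, Tween-20; compound pinned in; FRET-FV substrate; RT 20 min; Ex320/Em430; ΔFRET vs ADEP 5.8 microM, DMSO, no enzyme.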
Starred values were filed as active, the others as inactive; u = inconclusive; x = no result given; & = joins results of further samples; [ ] = another dose, or the depositor's remark.

SMILES	PINK1 expr mod	D2 ag	Menin MLL FP FL	Sfp inh	gsp ag	gsp antag	ClpP mod
CCOc1ccc(NC(=O)C2CCCN(c3c(CC)c(C)nc4ncnn34)C2)cc1 (centres undefined)	-0.9%	-4.5	-2.8	9.4%	12.4%[15.4 µM]	-2.4%	x
COc1ccc(CCN(C)C2CCCN(C(=O)Cn3cnnn3)C2)cc1OC (centres undefined)	0.5%	-4.1	0.8	13.2%	-30.1%[inhibitor]	3.8%	1.6%
Cc1ccc(CNS(=O)(=O)c2c(N)n(C)c(=O)n(C)c2=O)cc1	-1.3%	-4.9	x	9.6%	-0.6%	9.1%	-2.7%
CCc1nc2sc3c(c2c(=O)n1CCO)CCC3	-0.4%	-1.1	3.0	16.7%	6.2%	7.5%	x
CC1CCN(C(=O)COC(=O)c2nn(C)c(=O)c3ccccc23)CC1	-0.2%	-2.6	x	9.8%	u	7.5%	-0.6%
C=CCSc1nnc(-c2cccnc2)o1	1.2%	-1.6	3.0	8.1%	-27.5%	5.6%	-3.7%
Cc1cccc(OCC(O)Cn2c(=N)n(CCN3CCCCC3)c3ccccc32)c1 (centres undefined)	-31.4%[inhibitor][38.3 µM]	-3.8	-1.4	8.9%	-4.8%	18.4%	-4.0%&-3.4%
Cc1ccccc1-c1cccc([C@@H]2C[C@H]3[C@H](CON3C)CN2C(=O)CCc2ccccc2)c1	0.7%	-2.4	x	x	x	u	2.2%
CSC[C@H]1CN(Cc2ccccc2)C(=O)[C@@H]1CC(=O)Nc1ccc(Br)cc1	0.0%	-2.8	x	x	22.0%	x	1.7%
Cc1cccc(C(=O)Nc2nnc(S(=O)(=O)N3CCOCC3)s2)c1	-1.5%&0.9%	-1.8	3.2	14.5%	u	u	-2.5%&-0.5%
CCOC(=O)C1(Cc2ccccc2C)CCCN(C(=O)c2ccnn2C)C1 (centres undefined)	1.2%	0.1	1.0	-3.1%	-3.4%[15.4 µM]	-1.1%	x
CCCc1cc(=O)[nH]c(SCC(=O)c2c(C)[nH]c3ccccc23)n1	0.4%	-1.5	1.2	22.9%	-12.9%	-0.2%	-3.6%
O=C(CCS(=O)(=O)c1ccc(Br)cc1)NCc1cccs1	0.6%	0.6	-2.0	1.6%	-42.7%[inhibitor]	2.0%	4.9%
COCCNC(=S)N1CCN(C)CC1	1.4%	-3.8	-5.2	-26.0%	-2.3%	15.6%	2.0%
COc1cccc(-c2cnc(C(O)c3ccc(F)cc3C)[nH]2)c1 (centres undefined)	0.5%	-4.1	x	x	x	x	-9.9%
N#CCSc1ccccc1NC(=O)CN1C(=O)NC(CCc2ccccc2)C1=O (centres undefined)	3.0%	-5.0	x	x	-30.5%[inhibitor]	x	-0.2%
O=C(COc1ccc(Cl)cc1)Nc1ccc(CN2CCOCC2)cc1	-1.5%	-4.1	x	x	u	2.4%	0.7%
O=C(COC(=O)c1cccc(S(=O)(=O)N2CCCC2)c1)NCc1ccccc1	0.9%	-0.3	8.9	1.8%	-1.9%[15.4 µM]	-2.3%	x
COc1ccc(NC(=O)N2CCCC2C(=O)Nc2ccccc2F)cc1 (centres undefined)	3.1%	-0.7	5.5	7.7%	0.9%[15.4 µM]	-5.6%	x
Cc1ccc(S(=O)(=O)N(CC(O)CN2C(=O)NC(C)(C)C2=O)c2cccc([N+](=O)[O-])c2)cc1 (centres undefined)	2.2%	-2.1	1.1	5.6%	13.2%[15.4 µM]	-12.5%	-16.4%

Part of the list above, set out differently.
SMILES | PINK1 expr mod | D2 ag | Menin MLL FP FL | Sfp inh | gsp ag | gsp antag | ClpP mod
COc1cccc(-c2cnc(C(O)c3ccc(F)cc3C)[nH]2)c1 (centres undefined) | 0.5% | -4.1 | x | x | x | x | -9.9%
N#CCSc1ccccc1NC(=O)CN1C(=O)NC(CCc2ccccc2)C1=O (centres undefined) | 3.0% | -5.0 | x | x | -30.5%[inhibitor] | x | -0.2%
O=C(COc1ccc(Cl)cc1)Nc1ccc(CN2CCOCC2)cc1 | -1.5% | -4.1 | x | x | u | 2.4% | 0.7%

Continuation.
SMILES	PINK1 expr mod	D2 ag	Menin MLL FP FL	Sfp inh	gsp ag	gsp antag	ClpP mod
CCOc1ccc(N2C(=O)CC(N(Cc3ccco3)C(C)=O)C2=O)cc1 (centres undefined)	8.9%	-2.8	0.5	-2.0%	-3.3%[15.4 µM]	12.8%	x
Cn1cccc1/C=C(\C#N)c1ccccc1	-0.7%	1.6	0.2	2.3%	26.8%	4.2%	3.6%
CCOc1cc(NC(=O)Nc2ccccc2)c(OCC)cc1NC(=O)CC	5.1%	4.5	-0.6	17.2%	21.8%	2.8%	1.9%
CC(C)Cc1nc2sc3c(NCc4ccco4)ncnc3c2c2c1COC(C)(C)C2	4.2%	0.7	2.1	11.1%	21.4%	9.8%	92.8%
CCc1cc(=O)oc2cc3occ(C)c3cc12	-0.9%	0.3	-0.3	-0.7%	3.7%	1.3%	1.3%
C[C@H](CO)N1C[C@H](C)[C@@H](CN(C)C(=O)CCC(F)(F)F)OCc2cnnn2CCCC1=O	0.5%	-8.5	x	x	-3.6%	x	-0.9%
O=C(COC(=O)c1ccc(NS(=O)(=O)c2cccs2)cc1O)NC1CCCCC1	-2.0%	5.2	0.6	22.5%	11.3%[15.4 µM]	-17.5%	x
Cn1c(=O)c2[nH]c(NN=Cc3ccc(Br)cc3)nc2n(C)c1=O	1.2%	-1.0	x	x	2.9%	-17.3%	x
COc1ccc(C(=O)Cn2nnc(-c3ccccc3NC(=O)C3CC3)n2)cc1	-0.5%	-3.6	0.3	12.7%	26.2%	12.8%	-1.5%
CCCN(CC(=O)Nc1ccccc1C)C(=O)Cc1c(C)nc2ccccc2c1C	5.1%	0.1	x	x	29.4%	-1.3%	-4.0%
CCOc1ccccc1NC(=O)c1ccccc1N(C)S(C)(=O)=O	-0.8%	-4.1	-1.0	7.4%	8.1%	-5.7%	-22.6%
COc1cccc(CN(C)C(=O)CNC(=O)c2sc3ccccc3c2Cl)c1OC	-0.4%	4.4	x	x	-2.3%	-29.3%	-6.6%
COc1ccc(C(=O)NC(=S)NCc2ccco2)cc1Br	1.8%	-3.3	x	-15.5%	-2.8%[15.4 µM]	-28.2%	1.0%
OC(COc1ccc2c(c1)CCC2)Cn1cnc2ccccc21 (centres undefined)	0.6%	0.7	3.0	-3.2%	-13.6%	0.6%	1.4%
COc1cc(NC(=O)c2ccccc2)c(OC)cc1NC(C)=O	2.3%	5.6	1.4	2.7%	6.1%	3.6%	-4.0%
CCC(C)c1ccc(OCCCCN2CCOCC2)cc1 (centres undefined)	0.7%	-2.1	3.1	-11.9%	11.4%	7.1%	-3.5%
CC(=Nc1ccccc1O)c1sc2ccccc2c1O	1.0%	-3.1	u	-6.2%	-1.4%	u	1.0%
C[C@H](CO)N1C[C@H](C)[C@@H](CN(C)Cc2ccncc2)Oc2ccc(NC(=O)Cn3cnnn3)cc2C1=O	2.1%	-4.3	x	x	-2.7%	-3.3%	-9.2%
CCC(C)[C@H](NC(=O)N1CC(=O)Nc2ccccc21)C(=O)N[C@H](Cc1c[nH]c2ccccc12)C(=O)O (some centres undefined)	-0.1%	-3.5	1.1	-14.1%	x	4.5%	-7.4%
Cc1cccc(COCC(Cc2ccccc2)N2CCN(C(=O)c3cccc(Cl)c3)CCC2=O)c1 (centres undefined)	5.6%	8.6	0.3	-7.2%	x	-8.6%	-6.2%
CCN(CC)CC1CN(N=Cc2ccc([N+](=O)[O-])o2)C(=O)O1 (centres undefined)	-2.4%	7.6	x	x	-20.5%	-8.5%	x
COc1ccc(CCNC(=O)c2ccc(CNc3nc(=S)[nH]c4ccccc34)cc2)cc1OC	16.7%	-2.9	-3.5	22.4%	-19.7%[15.4 µM]	-6.8%	x
COc1cccc(NC(=O)C2CCN(C(=O)[C@@H]3Cc4ccccc4CN3C(=O)OC(C)(C)C)CC2)c1	-1.6%	-1.4	x	-0.1%	3.8%	-11.7%	-2.5%
COC(=O)CSc1nc2ccccc2c(=O)n1Cc1ccccc1	0.0%	3.4	2.9	19.3%	0.9%	10.1%	x
O=C(O)/C=C/C(=O)Nc1ccc(F)cc1F	-2.2%[38.3 µM]	1.8	2.1	-8.2%	-24.3%	-8.8%	-0.6%
CN(C)Cc1c(O)ccc2cc(-c3nc4ccccc4n3C)c(=O)oc12	-0.2%	2.9	u	-5.4%	u	4.3%	x
COc1ccc(-c2nnc(SCc3nc4ccccc4c(=O)[nH]3)o2)cc1	3.1%	-2.2	0.4	14.4%	13.4%	7.0%	0.7%
CCCCCC(=O)Nc1ccc(-c2csc(C)n2)cc1	1.3%	-2.5	2.4	-55.2%	-96.1%[inhibitor]	10.2%	-0.8%
COc1ccc(NC2=CC(=O)CC(c3ccccc3)C2)c(OC)c1 (centres undefined)	-0.6%[38.3 µM]	-1.2	3.5	8.1%	3.9%	27.4%	-1.0%
COCC(=O)N1CCC2(CCCN(c3ccccn3)C2)CC1	-0.5%	x	u	-7.6%	x	x	x
O=C(COC(=O)c1cccc(S(=O)(=O)N2CCCC2)c1)c1ccc(F)cc1	-0.4%	2.9	x	x	-9.6%	x	3.3%
Cc1ccc(C)c(NC(=O)COc2cccc3c2CCN(Cc2ccccc2)C3=O)c1	6.7%	-2.0	-0.5	-22.2%	-2.9%	33.5%[activator]	3.2%
CCC(C)c1ccc(C(CC)NC(=O)C2CCCO2)cc1 (centres undefined)	1.0%	-1.7	0.1	11.8%	-24.5%	-4.2%	-3.6%

This is a random part of the collection; about 5.1% have a hit in one of these screens.
